GIV Gai3 FP – inhibitors of GIV GBA-motif binding to rat Galpha-i3 | AID 1224905 | Galpha-i3/FITC-GIV peptide fluorescence polarization, 90 min; active compounds read low; scaled: aluminum fluoride 0%, vehicle 100% | 210,000 tested, 0.42% active | P08753 | percent of control (FP), % (no concentration beside the values);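 active = replicate mean at 85% of control or lower, very high polarization wells dropped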;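 also: wells of about 15 µL received 100 nL stock; the first replicate is given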
Target sequence (P08753 whole entry, looked up): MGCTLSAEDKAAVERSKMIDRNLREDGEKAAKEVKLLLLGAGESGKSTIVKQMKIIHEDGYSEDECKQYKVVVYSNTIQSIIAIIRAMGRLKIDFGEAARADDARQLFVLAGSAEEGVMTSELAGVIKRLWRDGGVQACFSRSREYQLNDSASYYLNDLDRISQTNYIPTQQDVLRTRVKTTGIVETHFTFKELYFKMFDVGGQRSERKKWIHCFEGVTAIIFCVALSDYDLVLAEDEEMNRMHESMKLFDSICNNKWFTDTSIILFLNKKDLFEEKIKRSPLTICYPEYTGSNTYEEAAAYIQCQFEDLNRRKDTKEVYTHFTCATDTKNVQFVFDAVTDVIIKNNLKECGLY
Sa growth inh – inhibitors of Staphylococcus aureus growth at 42 °C; AID 720641; S. aureus RN4220 growth, OD600, 20 h; active compounds read low; 170,000 tested, 0.53% active; relative growth, % (no concentration beside the values);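 active = growth at 42 °C up to 50% and 20 or more points under that at 30 °C, or under 10% at both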;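 also: 300 nL library stock went into each well; scaled to the means of positive and negative controls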
HCMV UL50-53 inh – cytomegalovirus nuclear egress complex inhibition. HTRF UL50-UL53 interaction, normalized percent inhibition. 190,000 tested, 0.15% active. AID 1918969. inhibition, % (concentration not given with the values);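 active = both replicates at 50% or more, plus weaker picks with an unusually low signal ratio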;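 also: stock transfer was 100 nL into about 20 µL; 0% = negative control wells and 100% = wells with untagged competitor protein; inactives centre near -12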
Sa growth inh second temp – also measured in Sa growth inh; calls as there; relative growth, %; measured here: growth at 30 °C;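 optical density after 20 h as mean of two plates; 100% = untreated growth and lower means inhibition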
Numbers without * were called inactive; . = no result given; & = joins results of further samples.

SMILES	GIV Gai3 FP	Sa growth inh	Sa growth inh second temp	HCMV UL50-53 inh
Cc1ccc2c(c1)cc1c(=O)n(CC(=O)N3CCCC3)nc(C)n12	102	111	110	.
CN1C(=O)S/C(=C/c2ccccc2OCc2ccc(C(=O)O)cc2)C1=O	102	99	74	.
CC(C)[C@H](NC(=O)c1ccccc1)C(=O)OCc1nnc(-c2ccccc2)o1	.	87	92	8
O=C(c1ccc2c(c1)ncn2C1CCCCC1)n1ccnc1	102	98	89	.
COc1cccc(CC(=O)OCC(=O)c2cccc(Cl)c2)c1	.	81	98	12
O=C(Nc1ccc(S(=O)(=O)NCc2ccco2)cc1)C1=NN(C2CCS(=O)(=O)C2)C(=O)CC1 (configuration not stated)	.	87	75	-20
Cc1cccn2cc(CNC(=O)c3ccco3)nc12	105	94	90	-17
CC1CC(C)CN(S(=O)(=O)c2ccc3c(c2)oc(=O)n3CC(=O)NC(C)c2ccccc2)C1 (configuration not stated)	101	115	95	.
Cc1cc(NC(=O)CCCC(=O)O)no1	101	89	89	-3
CC1(CC(=O)Nc2ccccc2)NN=C(c2ccccc2)S1 (configuration not stated)	.	69	61	-18
CC1CCCCN1Cc1nc2c(c(=O)n(C)c(=O)n2C)n1Cc1ccc(Br)cc1 (configuration not stated)	106	100	89	-24
COC(=O)C1C(=O)C2=C(CC1C)Nc1ccccc1NC2c1ccc(O)c(OC)c1 (configuration not stated)	103	111	79	-14
CC(=O)N(C1=NCCCCS1)c1ccccc1	107	94	103	-34
CCOc1ccc(CCNC(=O)CCc2c(C)nc3c(c(C)nn3-c3ccc(C)c(C)c3)c2C)cc1	99	92	91	-40
COC(=O)c1sccc1NC(=O)c1cccs1	96	102	99	-2
Cn1c(=O)n(C)c2cc(NS(=O)(=O)c3ccc4c(c3)CCCC4)c(Cl)cc21	110	.	.	-22
COc1ccc(-c2nc3sc(CCNC(=O)Cc4ccc(F)cc4)c(C)n3n2)cc1	102	114	95	.
Cc1ccc(NC(=O)Cn2c(=O)oc3ccccc32)cc1Cl	99	116	94	.
Cc1cc(C)c(C#N)c(SCC(=O)N2CCCC2)n1	.	77	93	-28
Cc1cccc(OCc2nc(CC(=O)Nc3ccc(Cl)cc3)cs2)c1	109&107	108	88	-38&-8
O=C(NCCc1ccccc1)C1CCC(=O)N1Cc1ccc(F)cc1 (configuration not stated)	107	104	84	-22
CC(c1ccn[nH]1)n1cncn1 (configuration not stated)	103	.	.	5
CCCCNC(=O)CN1CCN(c2ncc(NC(=O)c3ccc(Cl)cc3)cc2C(=O)O)CC1	99	106	81	.
Cc1ccc(C(=O)O)cc1S(=O)(=O)N1CCSCC1	102	105	95	-19
CCC(CO)N=Cc1ccc(O)c(OC)c1 (configuration not stated)	104	78	85	-52
CCCc1cnc(N2CCN(C(=O)c3cc(C)on3)CC2)nc1	102	100	89	-15
Cc1ccc(-c2onc(C)c2C)cc1S(=O)(=O)N1CCOc2ccc(Cl)cc21	104	100	91	.
CC(C)Cc1cc(-c2nn3c(C(C)C)nnc3s2)n[nH]1	102	.	.	-22
Cc1cc(NC(=O)c2ccc(COC(=O)Cn3cnnn3)cc2)ccc1Cl	.	110	107	-6
Cc1nn(-c2ccc(F)cc2)c(C)c1S(=O)(=O)Nc1ccc(S(N)(=O)=O)cc1	109	.	.	-23
Cn1ccnc1C(=O)c1cc(Cl)nc2ccccc12	.	89	90	-56
COC(=O)C1=C(C)NC(=O)NC1c1cn(-c2ccccc2)nc1-c1ccc(OC)c(Br)c1 (configuration not stated)	109	107	85	-12
CC1(C)CC(=O)c2c(n(S(C)(=O)=O)c3ccc(NS(C)(=O)=O)cc23)C1	99	93	88	-26
Cc1ccc(NC(=O)c2nccnc2C(=O)O)c(C)c1	103	.	.	21
CCOC(=O)c1ccc2nc(C(F)(F)F)nc(N3CC(C)OC(C)C3)c2c1 (configuration not stated)	105	116	84	.
CCCOC(=O)CSC1=C(C#N)C(c2cc(Br)c(O)c(OC)c2)CC(=O)N1 (configuration not stated)	103	.	.	-26
Cc1ccc2c(COC(=O)CNC(=O)c3ccc(Br)o3)cc(=O)oc2c1	.	98	92	-14
Cc1ccc(N2C(=O)CN(Cc3ccc4c(c3)OCO4)[C@H]3CS(=O)(=O)C[C@H]32)cc1C	112	.	.	-33
Oc1ccc(/C=N/NC(=S)N2CCOCC2)cc1	.	86	46	-63
O=C(Cc1cccs1)Nc1cccc(C(=O)Nc2ccco2)c1	.	100	74	-12
S=c1[nH]nc(CCn2c3ccccc3c3ccccc32)n1-c1ccccc1	106	86	84	-33
CS(=O)(=O)/C(C#N)=C/Nc1cccnc1	101	98	75	-12
CN(CCc1noc(COc2ccc(Cl)cc2)n1)S(=O)(=O)c1ccc(F)cc1F	102	.	.	2
COc1cc(NC2c3ccccc3C(=O)N2c2cc(C)ccn2)cc(OC)c1OC (configuration not stated)	101	100	89	.
Cc1ccc(NC(=O)c2nc(-c3ccncc3)no2)c(Cl)c1	105	96	94	14
CC(C)C[C@H]1C(=O)N2CCC[C@H]2[C@]2(O)O[C@](NC(=O)[C@@H]3C=C4c5cccc6[nH]c(Br)c(c56)CC4N(C)C3)(C(C)C)C(=O)N12 (some centres not stated)	103	85	74	-38&-15
Cn1c(=NC(=O)C2CC2)sc2ccc3ccccc3c21	102	108	97	-15
Cc1ccc(N2C(=O)/C(=C/c3ccc(N(C)C)cc3)S(=O)(=O)C2c2ccccc2)cc1 (configuration not stated)	110	.	.	-7
CCC(=O)N1c2ccc(S(=O)(=O)CCC(=O)N3CCN(c4cc(C)ccc4C)CC3)cc2CC1C (configuration not stated)	104	106	88	-17
O=C(CSc1nnc(-c2cccnc2)o1)NCc1ccc2c(c1)OCO2	97	.	.	-29
O=C(Nc1ccc(Oc2ccccc2)cc1)c1cnc2sc3c(n2c1=O)CCCC3	107	.	.	-21
Cc1ccc(-c2nn(C)c(=O)c3ccccc23)cc1CNC(=O)Nc1ccccc1	104	99	91	.
N#CC1(N2CCN(C3(C#N)CCCC3)CC2)CCCC1	.	122	78	-29
CCN(CC)c1nn2c(=O)c(C(=O)NCc3cccc(C)c3)cnc2s1	104	103	87	.
CSCC(=O)Nc1cc(C)on1	100	116	89	-8
O=S(=O)(NCCc1c[nH]c2ccccc12)c1cc(C(F)(F)F)cc(C(F)(F)F)c1	104	.	.	-18
C=CCn1c(SCC(=O)C(C#N)c2nc(C)cs2)nc2ccccc21 (configuration not stated)	.	56	35	-35
O=C(CN1C(=O)c2ccccc2S1(=O)=O)Nc1ccc(S(=O)(=O)Nc2ccc(F)cc2)cc1	109	.	.	-18
COc1cc2c(cc1OC)C(COc1ccccc1OC)N(C(=O)c1ccc(S(=O)(=O)N(C)C)cc1)CC2 (configuration not stated)	111	81	102	.
CCN(CC)S(=O)(=O)c1ccc2c(c1)N(CC(=O)Nc1c(C)cc(C)cc1C)C(=O)C1CCCN21 (configuration not stated)	109&110	97	87	13
(cont.)
SMILES	GIV Gai3 FP	Sa growth inh	Sa growth inh second temp	HCMV UL50-53 inh
NC(=O)CSc1nnc(Cc2cc(=O)[nH]c(=O)[nH]2)n1-c1ccccc1	100	115	92	.
Cc1cc(Cl)ccc1NC(c1ccccn1)c1ccc2cccnc2c1O (configuration not stated)	96	.	.	-24
COc1ccc(C)cc1S(=O)(=O)N1CCN(c2cc(N3CCOCC3)nc(C)n2)CC1	95	.	.	-13
CCOC(=O)C1=C(C)N=c2s/c(=C/c3ccc(OC(C)=O)c(OC)c3)c(=O)n2C1c1ccc(OC(C)=O)cc1 (configuration not stated)	107	.	.	-4
Cc1cc(/C=C2/NC(=O)N(Cc3ccccc3F)C2=O)c(C)n1-c1ccc(S(N)(=O)=O)cc1	105	128	86	.
N#CCCN1c2ccccc2Sc2ccc(Cl)cc21	103	70	87	.
O=c1cc(CSc2nnc(SCC3CC3)s2)c2ccc(O)cc2o1	104	107	92	-30
Cc1cc(C)cc(N2CCCn3c2nc2c3c(=O)n(C)c(=O)n2C)c1	102	.	.	-24
O=C(O)C1CNC(=O)N1C(=O)OCc1ccccc1 (configuration not stated)	101	110	90	-34
c1cn2c3c(n1)CCCc3c1cc(C3CCCCC3)ccc12	.	98	79	-12
c1ccc(C(Sc2nnc(-c3ccc4c(c3)OCO4)o2)c2ccccc2)cc1	.	83	87	-24
CC1(C)C(=O)N(c2ccccc2)C(=O)c2ccccc21	.	104	92	-21
O=C(O)CSc1nc2ccccc2nc1N1CCCCC1	98&103	93	92	-11&-28
CCOC(=O)C(CC)N1CCN(Cc2ccc(F)cc2)C(=O)C1=O (configuration not stated)	106	105	88	.
CCC(=O)c1ccc(OC)cc1OC	101	85	89	10
CN(C)c1ccc(C(C(=O)NCC2CCCO2)N(C(=O)Cn2nnc3ccccc32)c2ccc3c(c2)OCO3)cc1 (configuration not stated)	105	107	124	16
c1cncc(-c2noc(C3CCCCC3)n2)c1	107&102	117	92	-28
O=C(CSc1nc2c([nH]c3ccccc32)c(=O)n1-c1ccccc1)N1CCCCCC1	103	99	62	.
CCn1c(=O)c(=O)n(CC)c2cc(N3CCCCC3)c(NC(=O)CN3CCN(C)CC3)cc21	100	.	.	-31
Cc1ccc(C23CC4CC(CC(C(=O)NN5CCN(CCO)CC5)(C4)C2)C3)cc1	111	118	105	-36
Cc1ccc(CC2CC(=O)N(C3CCCCC3)C2=O)cc1 (configuration not stated)	107	93	99	-31
COc1cccc(Cn2c(Oc3cc(C)cc(C)c3)nc3c2c(=O)n(C)c(=O)n3C)c1	105	117	83	-39
COc1ccc(OC)c(C(=O)CSc2ncc3c(n2)-c2ccccc2N(C)S3(=O)=O)c1	104	.	.	-24
CCn1cc(/C=C(\NC(=O)c2ccccc2Cl)C(=O)NCCCn2ccnc2)c2ccccc21	108	82	88	-17
O=C(CSc1ncc(C(F)(F)F)cc1Cl)N(CC1CCCO1)C1CCS(=O)(=O)C1 (configuration not stated)	.	92	89	-12
Fc1ccc(-n2cc(-c3ccccc3)c3c(NC4CCCCC4)ncnc32)cc1	106	90	96	.
COc1cccc(CNC(=O)C2CCN(C(=O)c3cc4oc5ccccc5c4n3C)CC2)c1OC	102	.	.	-24
CCc1c(C)nc(-n2nc(C)cc2C)nc1Nc1ccccc1	98	.	.	-4
COc1ccc(Nc2sc(C(=O)c3ccccc3)c(N)c2C(=O)Nc2cc(C)ccc2C)c(OC)c1	99	78	94	.
COc1ccc(N(CC(=O)N2CCCCC2)S(=O)(=O)c2ccc(OC)c(OC)c2)cc1	106	112	89	-34
CCOc1cc(C(NC(=O)c2ccco2)NC(=O)c2ccco2)ccc1OC	100	89	86	-38
NS(=O)(=O)c1ccc(CCNc2ncnc3nc[nH]c23)cc1	98&106	84	87	-29&2
O=C(NCCc1ccccc1)C1CCC(CNS(=O)(=O)c2ccccc2)CC1 (configuration not stated)	106	100	91	.
CC1CCN(c2oc(-c3ccc(F)cc3)nc2S(=O)(=O)c2ccccc2)CC1	97	.	.	-14
CCOC(=O)c1cc(C)n(CC2CCC(C(=O)Nc3ccc(C)c(F)c3)CC2)c1C (configuration not stated)	102	103	88	.
Cn1c(=O)c2c(nc(NCc3ccc4c(c3)OCO4)n2Cc2cccc(Cl)c2)n(C)c1=O	109	.	.	2
CC1CCCCC1NC(=O)NC(=O)CSc1nc(N)cc(N)n1 (configuration not stated)	.	100	100	0
CCC1CCCCN1C(=O)COC(=O)c1ccc(Br)o1 (configuration not stated)	.	110	84	-35
COc1ccc(C(=O)OCC(=O)NCC2CCCCC2)c(OC)c1	.	101	96	-6
CCN(CCCNC(=O)CSc1cc(=O)n(CC)c2ccccc12)c1ccccc1	98	106	82	-36
